# Screens: PubChem BioAssay, several laboratories
# BJeLR viability: BJeLR cell viability loss; BJeLR (HRASV12) viability, CellTiter-Glo ATP luminescence, 48 h; reference of the scale not given here; inhibition, % (concentration not given with the values); actives 0.17% (n = 300,000); AID 1554;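 active = replicate mean above 50%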;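 note: 50 nL library stock added to about 25 µL; numbers are from one replicate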
# PrP 5UTR inh: inhibition of PrP 5' UTR reporter expression; cell-based PrP 5' UTR mRNA reporter, plate reader; AID 488862; actives 0.35% (n = 340,000); inhibition, % (test concentration not listed);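 active = every replicate at 50% or more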;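 note: 0 = median of the neutral control wells; tested in H4 reporter cells; numbers are from one replicate; inactives centre near -14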
# Mtb hypoxia inh: reduces hypoxia-regulated biosensor signal in M. tuberculosis; fluorescence inhibition, % (concentration not given with the values); AID 1159583; M. tuberculosis hypoxia-regulated fluorescent reporter, fluorescence; actives 0.1% (n = 300,000);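 active = 35 to 45% if threefold the growth effect, above 45% if 1.5-fold the growth effect; inactive = the rest, general growth blockers included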;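 note: wells of about 50 µL received 100 nL stock; 0% = vehicle wells and 100% = reference inhibitor wells; whole bacteria with a GFP reporter of the hypoxia response; strong numbers were not always called active; many hits fall short of the cut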
# Bead autofluor: flagged as autofluorescent in microsphere protease counterscreen. compound autofluorescence counterscreen, microsphere flow cytometry; stronger effect = higher value. fluorescence intensity (concentration not given with the values). actives 3.1% (n = 360,000). AID 624483;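 active = at least 3 SD above the mean of all compounds, about 16000 in these data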;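 note: 100 nL of 1 mM stock went into each well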
# Sa ugtP lethal: growth inhibition of S. aureus ugtP deletion strain; actives 0.54% (n = 330,000); growth inhibition, % (no concentration beside the values); S. aureus RN4220 ugtP deletion, OD600 growth, 16 h; some inactives read as strong as hits; AID 1259309;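 active = z-score under -3 and OD600 up to 0.15 on both plates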;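 note: plate controls were untreated wells for no effect and antibiotic for full effect; wells of about 80 µL received 100 nL stock; the first replicate is given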
# Sa RN4220 lethal: S. aureus RN4220 growth inhibition | actives 0.33% (n = 330,000) | inhibition, % (concentration not given with the values) | OD600, 16 h;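 active = z-score of -3 or lower and OD600 up to 0.18 on both plates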;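 note: plate controls were untreated cells for no effect and reference antibiotic for full effect; stock transfer was 100 nL into about 80 µL; one replicate is shown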
# Mtb hypoxia inh growth: further read-out of Mtb hypoxia inh, marked with its call; growth inhibition, %; measured here: M. tuberculosis growth (absorbance);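 0% = vehicle and 100% = reference antibiotic; read after six days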
# * = called active by the depositor; x = not tested or not shown. Rows were taken by chance. About 4.1% of those tested had a hit in this group.
SMILES,BJeLR viability,PrP 5UTR inh,Mtb hypoxia inh,Mtb hypoxia inh growth,Bead autofluor,Sa ugtP lethal,Sa RN4220 lethal
COc1cc(OC)cc(C(=O)NC2CCSC2=O)c1 (stereo unspecified),5,-8,5,1,17088*,11,6.9
O=C(CC1CCCC1)Nc1cc(C(F)(F)F)ccc1-n1cncn1,x,-21,7,7,4077,1,1.2
COCCNC(=O)CSc1nc2ccccc2c(=O)n1CCCC(=O)NCc1ccccc1,7,-14,x,x,22634*,x,x
CSc1nnc(C2CCCN2)n1C (stereo unspecified),-4,-9,-6,0,4587,-3,1.6
NC(=O)C1Cc2ccccc2CN1C(=O)c1cccc(Oc2ccccc2)c1 (stereo unspecified),0,-15,12,0,3721,-2,0.0
O=C(CC1SC2=NCCN2C1=O)Nc1ccc(Br)cc1 (stereo unspecified),-2,-7,0,-6,21829*,5,4.4
CCN1CCN(Cc2nc3c(c(=O)n(C)c(=O)n3C)n2CC(=O)c2ccccc2)CC1,13,-4,-2,-2,5846,0,4.7
CC(C)(O[C@@H]1O[C@H](CO)[C@@H](O)[C@H](O)[C@H]1O)[C@H]1Cc2cc3ccc(=O)oc3cc2O1,6,-5,x,x,3539,x,x
Cc1ccc(S(=O)(=O)n2cnc3cc([N+](=O)[O-])ccc32)c(C)c1C,-5,-24,x,x,3322,-1,-3.2
COc1cc(S(=O)(=O)N(Cc2ccccc2)Cc2ccccn2)ccc1-n1cnnn1,15,4,7,4,10081,13,8.6
Cc1cc(S(N)(=O)=O)c(N)c(S(N)(=O)=O)c1,1,-11,9,1,3954,11,3.2
CCOC(=O)CSc1nc2nc(C)cc(C)n2n1,-4,-4,x,x,4461,4,-2.6
CN(C)S(=O)(=O)c1ccc(NC(=O)CN2CCCc3ccccc32)cc1,-2,-15,0,0,10953,24,5.5
CCC1C2CN(C(C)=O)CC=C2C(C#N)=C(N)C1(C#N)C#N (stereo unspecified),7,-14,1,0,3842,-7,-3.0
Cn1c(=O)c2nc(SCCO)n(C)c2n(C)c1=O,x,-22,17,11,3377,8,2.5
COc1ccc(CC(=O)N2CCN(S(=O)(=O)c3cc(Cl)ccc3Cl)CC2)cc1,x,-13,2,-11,3946,7,0.3
CS(=O)(=O)c1ccc(-c2csc(-c3cccnc3)n2)cc1,0,-17,14,0,3909,1,0.1
Cc1ccc(NC(=O)c2ccco2)c(NC(=O)CN2C(=O)c3ccccc3C2=O)c1,-3,-32,-5,-3,2677,-6,1.8
N#CCCn1cc(/C=N/O)c(-c2cccc([N+](=O)[O-])c2)n1,-3,-33,x,x,4214,x,x
C[C@]12C=CC(=O)C=C1CC[C@@H]1[C@@H]2[C@@H](O)C[C@@]2(C)[C@H]1CC[C@]2(O)C(=O)COC(=O)CCC(=O)NCCc1ccc(O)cc1,0,-21,-6,-10,4048,-3,-3.5

# Entries listed so far with a cyano group:
SMILES,BJeLR viability,PrP 5UTR inh,Mtb hypoxia inh,Mtb hypoxia inh growth,Bead autofluor,Sa ugtP lethal,Sa RN4220 lethal
CCC1C2CN(C(C)=O)CC=C2C(C#N)=C(N)C1(C#N)C#N (stereo unspecified),7,-14,1,0,3842,-7,-3.0
N#CCCn1cc(/C=N/O)c(-c2cccc([N+](=O)[O-])c2)n1,-3,-33,x,x,4214,x,x

# Remaining list, next part
SMILES,BJeLR viability,PrP 5UTR inh,Mtb hypoxia inh,Mtb hypoxia inh growth,Bead autofluor,Sa ugtP lethal,Sa RN4220 lethal
O=C(COC(=O)c1ncc(Cl)c(Cl)c1Cl)Nc1ccc(Cl)cn1,-5,-13,-7,6,6115,5,0.9
O=C(CSc1nnc(NC(=O)c2ccc(F)cc2)s1)NC1CC1,2,-27,9,9,5428,8,4.1
CCCCN1C(=O)/C(=C/C=C/c2ccco2)C(=O)NC1=S,-7,-4,10,-5,1986,7,0.1
CCCC(C(=O)NCc1ccco1)N(C(=O)CNS(=O)(=O)c1ccccc1)C1CCCC1 (stereo unspecified),7,-3,x,x,4936,7,4.0
CN(C)C(=O)COc1ccc(S(=O)(=O)c2ccc(OCC(=O)N(C)C)cc2)cc1,-1,-8,-3,-7,2852,-3,1.5
CCCCCC(=O)Nc1ccccc1N1CCN(c2ccccc2)CC1,15,2,5,11,13573,0,-0.6
Cc1cccc(OC2CCN(Cc3c(C(=O)N4CCCC4)nc4ccccn34)CC2)c1,0,-16,15,6,2123,1,1.1
O=C(Nc1nc2c(F)cc(F)cc2s1)C1COc2ccccc2O1 (stereo unspecified),-6,-27,4,-3,4706,3,-2.8
CS(=O)(=O)NCc1nnc(SCC(=O)NC2CCCCC2)n1-c1ccc(F)cc1,-2,-5,x,x,4408,5,4.4
CC(C)n1c(S(=O)(=O)O)nc2ccccc21,-1,-9,11,1,4684,0,6.3
O=C(Nc1cccc(-c2nn[nH]n2)c1)c1ccc(Br)s1,-3,8,1,1,4920,-8,-2.5
Nc1nnc(SCC(=O)N2CCc3ccccc3C2)s1,-4,-27,1,11,3403,1,1.8
CCN(CC)c1ccc(C2C(C(=O)OCCOC(C)C)=C(C)NC3=C2C(=O)CCC3)cc1 (stereo unspecified),4,-11,2,5,3148,-4,-10
C#C[C@]1(O)CCC2C3CCc4cc(OC)ccc4C3CC[C@@]21C (stereo partly specified),x,x,-4,-2,x,-1,-2.0
O=C1c2cccnc2C(=O)N1CO,9,-21,x,x,4822,-5,0.0
O=C1C(=O)N(CC2COc3ccccc3O2)c2ccccc21 (stereo unspecified),0,-22,-2,6,3795,-2,5.3
CCc1nnc2n1N=C(c1ccc(Br)cc1)CS2,-3,-32,4,-13,4198,-6,0.6
O=C(OCc1c(F)cccc1Cl)c1cccnc1Cl,-5,-4,-10,-7,5633,-4,3.0
Cc1ccc(-c2nn(-c3ccccc3)c3[nH]c(=O)c(CNCc4ccccc4)cc23)cc1,13,-9,-3,4,10703,5,-18
COc1cc2nc(-c3cccs3)oc(=O)c2cc1OC,11,-33,5,10,10279,-10,8.7

# Part of the list above, set out differently:
compound	BJeLR viability	PrP 5UTR inh	Mtb hypoxia inh	Mtb hypoxia inh growth	Bead autofluor	Sa ugtP lethal	Sa RN4220 lethal
O=C1C(=O)N(CC2COc3ccccc3O2)c2ccccc21 (stereo unspecified)	0	-22	-2	6	3795	-2	5.3
CCc1nnc2n1N=C(c1ccc(Br)cc1)CS2	-3	-32	4	-13	4198	-6	0.6

# Entries of single compounds as entered above. Order of values: BJeLR viability | PrP 5UTR inh | Mtb hypoxia inh | Mtb hypoxia inh growth | Bead autofluor | Sa ugtP lethal | Sa RN4220 lethal
# Nc1nnc(SCC(=O)N2CCc3ccccc3C2)s1 reads -4 | -27 | 1 | 11 | 3403 | 1 | 1.8
# CCCCCC(=O)Nc1ccccc1N1CCN(c2ccccc2)CC1 reads 15 | 2 | 5 | 11 | 13573 | 0 | -0.6
# O=C1C(=O)N(CC2COc3ccccc3O2)c2ccccc21 (stereo unspecified) reads 0 | -22 | -2 | 6 | 3795 | -2 | 5.3

# Following part
SMILES,BJeLR viability,PrP 5UTR inh,Mtb hypoxia inh,Mtb hypoxia inh growth,Bead autofluor,Sa ugtP lethal,Sa RN4220 lethal
COc1ccc(C(=O)NN=C(C)CC(=O)Nc2ccc3ccccc3c2)c(OC)c1,x,x,0,-4,x,-2,2.6
COc1ccc(-c2ccc(OC)c(OC)c2OC)cc1,x,-16,7,9,2767,5,4.8
c1ccc(CCNc2ncnc3c2cnn3-c2ccccc2)cc1,1,2,14,14,6631,6,4.7
CCCCNC(=O)CSc1nc(O)cc(=O)n1C1CCCC1,5,-12,-5,7,3124,6,9.0
CC(C)c1c(C(=O)NN=Cc2cccs2)nnn1-c1nonc1N,x,x,8,9,x,-1,1.4
CCOC(=O)C1NN=C(C(=O)c2ccc(C)cc2)C1c1ccc(C)cc1 (stereo unspecified),6,-29,11,4,2462,9,11
Oc1ccccc1/C=N/n1c(-c2ccccc2)n[nH]c1=S,-18,-33,x,x,3765,x,x
Cc1ccc(NS(=O)(=O)c2sc3ccc(Cl)cc3c2C)cc1,2,x,11,10,x,-9,-5.4
O=C(O)c1ccc(NS(=O)(=O)c2ccc(Cl)cc2)cc1,x,-9,-4,7,21092*,-1,-6.5
Cc1cc(C(=O)Cn2cc(C(F)(F)F)ccc2=O)c(C)n1CC1CCCO1 (stereo unspecified),x,-11,9,3,3888,0,1.5
O=C(c1cccc(F)c1)N1CCC(c2nc3ccccc3s2)CC1,1,-22,7,7,3393,11,0.0
CCN1CCCC1CNC1=NCCCCC1 (stereo unspecified),-1,-5,7,6,6572,15,3.3
O=C(CNC(=O)c1nc[nH]c1C(=O)N1CCNCC1)OCc1ccccc1,-16,-52,15,9,4107,4,3.7
CN(CC(=O)Nc1c(Cl)cccc1Cl)C(=O)c1ccc(NS(=O)(=O)c2ccc3[nH]c(=O)[nH]c3c2)cc1,x,-2,-4,-3,2946,10,4.2
CC1(C)Cc2ccccc2C(NN=Cc2cccc(F)c2)=N1,x,x,0,2,x,-6,-0.6
S=C1NC[C@H](Cc2ccccc2)N1CCCCC1CCCCC1,5,-8,x,x,4133,x,x
O=C(NC(=S)Nc1ccccc1O)c1cncc(Br)c1,-12,-24,-13,5,3352,-5,20
CC(=O)Nc1c2c(nn1-c1ccc(Cl)cc1)CSC2,-4,-1,3,-5,4852,8,5.2
COC(=O)Nc1ccc(Oc2ccccc2)cc1,2,-9,2,7,21537*,1,4.5
O=C(NCc1cccc(C(F)(F)F)c1)C1CC(c2ccccc2[N+](=O)[O-])=NO1 (stereo unspecified),-4,-25,x,x,4465,1,6.0
CCCC[n+]1cc(/N=C(\[O-])OC)on1,2,-5,x,x,2938,3,1.7
CN(CC(=O)NCCc1ccc(S(N)(=O)=O)cc1)S(=O)(=O)c1ccc(Br)s1,-7,-7,4,7,3519,7,3.1
CC1=C(C#N)C(c2ccc(O)cc2)C2=C(CC(C)(C)CC2=O)N1 (stereo unspecified),6,-18,5,2,1985,1,5.0
CC1CC(C)CN(CCCNC(=O)C2CCN(c3nnc(-n4cccc4)s3)CC2)C1 (stereo unspecified),0,-13,6,8,4628,6,-2.0
O=[N+]([O-])c1ccccc1C=NNc1ccccc1,x,-55,-4,8,3916,15,2.5
CCN(CC(=O)NCc1ccc(Cl)cc1)C(=O)NCc1ccc(Cl)cc1,8,-25,4,5,4891,17,-2.3
CC(=O)Nc1ccc(-c2cc(-c3ccc(NC(C)=O)cc3)nc(-c3ccccc3)n2)cc1,-4,-10,4,-8,13054,-7,4.1
Oc1c(Br)cc(/C=N/NC(=S)NCc2ccco2)cc1Br,-1,-39,x,x,6002,x,x
